Compound activity from PubChem BioAssay.
BJeLR lethal – kills HRASV12-expressing BJeLR cells | 0.17% of 300,000 active | BJeLR (HRASV12) viability, CellTiter-Glo ATP luminescence, 48 h; reference of the scale not given here | inhibition, % (no concentration beside the values) | AID 1554;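 active = replicate mean above 50%; inconclusive = above 50% but judged a plate artefact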;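 also: 50 nL library stock added to about 25 µL; numbers are from one replicate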
PrP 5UTR inh – inhibition of PrP 5' UTR reporter expression. 0.35% of 340,000 active. cell-based PrP 5' UTR mRNA reporter, plate reader. inhibition, % (no concentration beside the values);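 active = every replicate at 50% or more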;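 also: 0 = median of the neutral control wells; tested in H4 reporter cells; numbers are from one replicate; inactives centre near -14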
ugtP null kill – compounds lethal to S. aureus RN4220 ugtP deletion mutant; OD600 growth, 16 h; some inactives read as strong as hits; growth inhibition, % (no concentration beside the values); 0.54% of 330,000 active; AID 1259309;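 active = z-score under -3 and OD600 up to 0.15 on both plates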;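 also: plate controls were untreated wells for no effect and antibiotic for full effect; wells of about 80 µL received 100 nL stock; the first replicate is given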
RN4220 kill – kills Staphylococcus aureus RN4220. S. aureus RN4220 growth, OD600, 16 h. inhibition, % (test concentration not listed). 0.33% of 330,000 active. AID 1259311;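 active = z-score of -3 or lower and OD600 up to 0.18 on both plates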;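 also: plate controls were untreated cells for no effect and reference antibiotic for full effect; stock transfer was 100 nL into about 80 µL; one replicate is shown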
Mtb hypoxia rep – inhibitors of hypoxia-regulated fluorescent reporter in Mycobacterium tuberculosis | fluorescence inhibition, % (test concentration not listed) | M. tuberculosis hypoxia-regulated fluorescent reporter, fluorescence | AID 1159583 | 0.1% of 300,000 active;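 active = 35 to 45% if threefold the growth effect, above 45% if 1.5-fold the growth effect; inactive = the rest, general growth blockers included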;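 also: wells of about 50 µL received 100 nL stock; 0% = vehicle wells and 100% = reference inhibitor wells; whole bacteria with a GFP reporter of the hypoxia response; strong numbers were not always called active; many hits fall short of the cut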
Bead autofluor – flagged as autofluorescent in microsphere protease counterscreen | compound autofluorescence counterscreen, microsphere flow cytometry; active compounds read high | fluorescence intensity (no concentration beside the values) | 3.1% of 360,000 active;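 active = at least 3 SD above the mean of all compounds, about 16000 in these data; inconclusive = too few beads counted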;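 also: 100 nL of 1 mM stock went into each well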
Mtb hypoxia rep growth – also measured in Mtb hypoxia rep; calls as there; growth inhibition, %; measured here: M. tuberculosis growth (absorbance);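 0% = vehicle and 100% = reference antibiotic; read after six days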
An asterisk follows results filed as active; ? = inconclusive; . = not tested or not shown.

A first look:
SMILES	BJeLR lethal	PrP 5UTR inh	ugtP null kill	RN4220 kill	Mtb hypoxia rep	Mtb hypoxia rep growth	Bead autofluor
Cc1ccc(C(=O)OCC(=O)c2ccc(CC(=O)N3CCOCC3)s2)c(C)c1	.	-11	-4	3.4	8	3	.
CC1CCN(S(=O)(=O)c2cn(CC(=O)Nc3ccc(C#N)cc3)cn2)CC1	1	-19	3	1.9	-1	0	?
Cc1cc(-c2ccccc2)nc(NN=Cc2ccc(N(C)C)cc2)n1	.	.	0	6.3	-5	6	.
CCC(C)(C)n1nnnc1C(C(C)C)N1CCN(C)CC1 (configuration not stated)	3	-12	0	1.4	5	7	11087
Cc1ccc(S(=O)(=O)c2ccc(Cl)cc2)cc1S(=O)(=O)N1CCN(C)CC1	-1	.	2	5.4	4	0	11460
CCC(CC)C(=O)NCCc1ccc(F)cc1	12	-11	5	1.5	.	.	5252

The list itself, previewed entries included:
SMILES	BJeLR lethal	PrP 5UTR inh	ugtP null kill	RN4220 kill	Mtb hypoxia rep	Mtb hypoxia rep growth	Bead autofluor
Cc1ccc(C(=O)OCC(=O)c2ccc(CC(=O)N3CCOCC3)s2)c(C)c1	.	-11	-4	3.4	8	3	.
CC1CCN(S(=O)(=O)c2cn(CC(=O)Nc3ccc(C#N)cc3)cn2)CC1	1	-19	3	1.9	-1	0	?
Cc1cc(-c2ccccc2)nc(NN=Cc2ccc(N(C)C)cc2)n1	.	.	0	6.3	-5	6	.
CCC(C)(C)n1nnnc1C(C(C)C)N1CCN(C)CC1 (configuration not stated)	3	-12	0	1.4	5	7	11087
Cc1ccc(S(=O)(=O)c2ccc(Cl)cc2)cc1S(=O)(=O)N1CCN(C)CC1	-1	.	2	5.4	4	0	11460
CCC(CC)C(=O)NCCc1ccc(F)cc1	12	-11	5	1.5	.	.	5252
COc1ccc2c(c1)CCCC21NC(=O)N(CC(=O)N2CC(C)OC(C)C2)C1=O (configuration not stated)	.	5	-4	0.4	-2	-1	.
COc1ccccc1NC(=O)CSC1CC(=O)N(c2ccc3c(c2)OCO3)C1=O (configuration not stated)	2	-4	8	13	2	8	5337
FC(F)(F)c1ccnc(Oc2ccc(C3=NCCS3)cc2)c1	0	-51	34	-0.6	-1	7	3806
Cc1ccc(COc2ccc(/C=N/O)cc2)cc1	-2	-77	.	.	.	.	2401
CN(C)CCn1c2c(c(SCC(=O)Nc3nccs3)nc1=O)CCCC2	16	-42	0	0.7	10	13	?
Cc1ccc(NC(=O)CCC(=O)OCC(=O)c2ccc(Oc3ccc([N+](=O)[O-])cc3)cc2)cc1	8	-11	2	3.1	-5	0	2294
CC(=O)Nc1sc(N/N=C\c2ccco2)nc1-c1cccs1	-9	2	.	.	.	.	7331
O=C(NCCCCO)c1ccc2c3c(cccc13)CC2	0	-47	-2	-3.2	-17	-4	4149
O=C(CCn1ccnc1)Nc1ccc2ccccc2c1	2	-30	2	4.8	9	3	4229
C=CCNC(=S)NNc1nc(N2CCCC2)nc(N2CCCC2)n1	-14	-14	5	3.3	-4	-15	4166
CN1C(=O)N(CC(=O)NCc2ccc(Cl)cc2Cl)C(=O)C12CCCCC2	.	-14	-2	2.8	8	3	5901
CC(=O)Nc1ccc(S(=O)(=O)N2CCC(C(=O)NCc3cccnc3)CC2)cc1	5	0	3	2.1	13	1	6544
CN1CCN(C(=O)C2=CC(c3ccccc3)CC(OCCCCO)O2)CC1 (configuration not stated)	.	.	2	6.0	2	6	.
O=C(Cc1ccc([N+](=O)[O-])cc1)Nc1cccc(C(F)(F)F)c1	-3	-4	-38	-1.1	8	12	2361
Cc1cccc(NC(=O)CN2C(=O)S/C(=C\C(=O)Nc3ccc(Cl)cc3)C2=O)c1	-14	4	-2	4.1	5	6	2045
Cc1cc(C)c(S(=O)(=O)N2CCN(C(=O)c3c(C)nn(-c4ccccc4)c3Cl)CC2)c(C)c1	.	2	3	3.3	2	-6	?
COc1ccc(C(CC(=O)O)NC(=O)Cc2ccccc2)cc1 (configuration not stated)	10	-14	3	0.4	.	.	3214
N#Cc1ccccc1Cn1cc(C(=O)c2ccccc2F)c2ccccc21	10	4	.	.	.	.	7075
CCOc1ncccc1C(=O)OCC(=O)Nc1ccc(Cl)cn1	.	-6	0	-1.0	-3	12	3723
CCN=C1S/C(=C\c2cc(Br)ccc2OCC(=O)OCC)C(=O)N1CC	0	-24	3	-0.5	-2	10	2428
C=CCC1(CC=C)CCCN1C(=O)c1cc(COc2cccc(C(F)(F)F)c2)on1	0	-11	2	2.2	6	14	4384
O=C(N/C(=C\c1cccnc1)C(=O)N1CCOCC1)c1ccco1	8	-14	13	1.8	0	1	2078
COC(=O)NN=Cc1cccc([N+](=O)[O-])c1	.	.	12	5.8	4	7	.
C=C(C)Cn1c(NCCC)nc2c1c(=O)n(C)c(=O)n2C	6	-20	11	4.5	10	5	4239
Cc1cc(C)c(-c2cc(NC(=O)COC(=O)c3ccc(C#N)cc3)n(-c3ccccc3)n2)cc1C	-2	-4	-3	-2.2	2	17	2596
CC(C)(C)C(=O)Cn1ncc(N2CCOCC2)c(Cl)c1=O	-2	-8	6	0.7	-1	-2	3862
COc1ccc(C(=O)NC(C)CCc2ccccc2)cc1[N+](=O)[O-] (configuration not stated)	-2	-21	9	0.9	16	8	3453
COC(=O)CSc1[nH]c2ccc(F)cc2c1[N+](=O)[O-]	23	-18	-6	5.5	23	9	4737
O=C(NCc1cccnc1)c1ccccc1NC(=O)c1c(F)cccc1F	6	-4	2	2.4	4	7	5910
CN(C(=O)c1ccccc1OCc1ccc(Cl)cc1)c1ccccc1	-3	-18	-2	1.0	4	10	5446
CC(C)C(=O)N1CCN(c2ccccc2NC(=O)c2cccc(Cl)c2)CC1	-5	-39	7	0.3	.	.	3066
O=S(=O)(c1ccc(F)cc1)n1ccc(-c2cccc(OCc3ccc(Cl)cc3Cl)c2)n1	3	-18	17	-3.3	6	9	6362
CC1Cn2c(nc3sc4c(c3c2=O)CCC4)N1CCO (configuration not stated)	-2	-18	2	7.0	13	12	9402
COc1ccccc1OCC(=O)NCCCN1CCOCC1	1	-9	10	0.6	-3	2	6168
O=C(CN1C(=O)CSc2ccc(C(F)(F)F)cc21)Nc1ccccc1	0	-25	-7	2.7	14	10	6408
COc1ccc(OC)c(N(CC(=O)NC2CC3CCC2C3)S(=O)(=O)c2ccccc2)c1 (configuration not stated)	-6	-3	7	3.7	-8	-8	3544
O=S(=O)(c1cccs1)N1CCc2ccccc2C1	-7	-2	6	2.7	3	5	4739
COc1ccc(Cc2nnc(NC(=O)Nc3ccccc3OC)s2)cc1	5	.	-2	-1.4	-10	-11	3104
CNc1c(NS(=O)(=O)c2ccc(OC)cc2)c(=O)oc2ccccc12	7	-1	5	7.6	2	7	3626
Cc1cccc(N(C(=O)CCC(=O)Nc2nccs2)C(C(=O)NC(C)(C)C)c2ccc(O)cc2)c1 (configuration not stated)	4	-24	4	4.7	3	4	4669
OC(COCc1ccccc1)CN1CCc2ccccc2C1 (configuration not stated)	2	-24	-4	2.7	3	-6	2132
CCn1c(SCc2ccc(C(=O)OC)o2)nc2sc3c(c2c1=O)CCCC3	-8	-32	0	3.3	9	14	10252
Cc1nn(CC(=O)NCCCN2CCCCC2)c(=O)c2cc(-c3ccccc3)nn12	4	-11	3	1.1	10	3	5866
CN(C)c1ccc(/C=C(\C#N)C(=O)c2ccccc2)cc1	-10	-14	5	3.8	-7	2	8801
(list continues)
SMILES	BJeLR lethal	PrP 5UTR inh	ugtP null kill	RN4220 kill	Mtb hypoxia rep	Mtb hypoxia rep growth	Bead autofluor
COc1ccc(-c2nn(CCC#N)cc2C(=O)NCc2ccccc2)cc1OC	-2	-21	10	6.2	6	3	3788
COc1ccc2cc(C(=O)C3CCCN(C(=O)CCc4cnn(C)c4)C3)ccc2c1 (configuration not stated)	4	-22	1	4.1	7	-3	2572
O=C(CNC1CCCCCC1)Nc1ccccc1N1CCOCC1	-1	-18	-1	4.3	9	11	3986
O=C(O)c1cc(/C=N\O)ccc1OCc1ccccc1	-2	-25	.	.	.	.	8230
O=C(Nc1ccc(OCc2ccccc2)cc1)c1cccs1	-1	-41	9	7.0	1	4	2901
Cn1c(NCCO)nc2c(c1=O)C1(CCCCC1)Cc1ccccc1-2	10	-17	1	-1.1	10	6	4583
COc1ccc(C2OC3=C(Nc4cc(C)c(C)cc4N3)C2=O)cc1 (configuration not stated)	-8	-46	10	1.9	4	-15	3553
O=C(COc1ccc(Br)cc1)NNC(=O)c1ccc(-n2cncn2)c([N+](=O)[O-])c1	.	-2	6	0.2	2	1	8724
Clc1ccc(Cn2ncc3c(N4CCCCC4)ncnc32)cc1	1	-7	12	-5.9	.	.	4074
COc1ccc(/C=C/C(=O)NCC(=O)N/N=C/c2ccc(OC)cc2)cc1	-1	-29	.	.	.	.	2601
COc1ccc(OC)c(C2C(C(C)=O)=C(O)C(=O)N2c2ccc(O)cc2)c1 (configuration not stated)	8	-25	4	5.1	19	5	2804
CCOC(=O)NC(=O)CSc1nnnn1-c1ccc(Cl)cc1	0	-23	10	21	6	2	10043
Cc1c(C(=O)N(C)C2CC(C)(C)NC(C)(C)C2)oc2c(F)cccc12	7	-11	5	-2.6	-4	-3	5964
COc1cc(CC(=O)OCC(=O)NC(C)c2ccccc2)cc(OC)c1OC (configuration not stated)	.	9	5	2.9	5	-3	?
CC(C)Nc1nc(NC(N)=S)nc(NC(C)C)n1	0	-21	13	4.2	-2	6	2232
CC(C)N(C(=O)CN(C#N)c1nc(N(C)C)nc(N(C)C)n1)c1ccccc1	-1	-2	5	2.3	9	1	7947
COc1ccccc1CNC(=O)C1CCN(S(=O)(=O)c2ccc3c(c2)CC(C)N3C(C)=O)CC1 (configuration not stated)	-13	0	8	2.2	1	1	4089
Cc1nnc(SCC(=O)NCc2ccco2)n1-c1ccccc1	9	-17	7	2.1	0	1	?
CC(C)c1cc(NCCN2CCOCC2)n2c(nc3ccccc32)c1C#N	.	-2	8	1.7	2	8	5514
CCc1oc(C(=O)O)cc1CN(CC)CC	-4	-3	6	2.1	2	4	7686
CC(C)c1ccc(-c2nc(N3CCCCCC3)nc3n[nH]c(N)c23)cc1	-4	0	17	3.6	-84	-22	9700
O=C(NCCc1ccccc1)c1ccc2c(c1)S(=O)(=O)c1ccccc1C2=O	-1	-4	10	17	-2	5	3764
O=C(/C=C/c1ccccc1)COC(=O)c1ccccc1	.	-5	13	9.0	14	4	3017
Nc1c(N(CCC2=CCCCC2)C(=O)COc2ccc(F)cc2Cl)c(=O)[nH]c(=O)n1Cc1ccccc1	.	4	15	19	17	21	3844
COc1ccc(-c2nc3cnccn3c2Nc2ccc(C)cc2)cc1	0	-10	-10	-5.7	3	6	4786
Cc1ccnc2nc(C(=O)OCC(=O)N(CC(C)C)CC(C)C)nn12	5	2	6	2.4	-4	-2	4336
Cc1ccccc1Cn1c(=O)n(CCC(=O)NCc2ccc3c(c2)OCO3)c(=O)c2ccccc21	-7	-15	-1	0.7	4	0	3747
COc1cc(C(=O)N2C[C@@H]3CCC[C@H]2C3)ccc1OC1CCN(C(C)=O)CC1	1	-13	2	-1.1	-1	-1	?
N#C/C(=C(\O)CCl)c1nnc2n1CCCCC2	-9	-31	.	.	.	.	3601
CCC(=NNS(=O)(=O)c1ccc(C)cc1)c1ccco1	.	.	-1	3.1	-2	-4	.
CN(C)CCN(Cc1ccccc1)C(=O)C1CCN(c2ncnc3c2nc2n3CCCCC2)CC1	-13	-31	.	.	.	.	4555
O=C(Nc1cccc(Cl)c1)/C(=C\c1cccnc1)NC(=O)c1ccco1	4	-9	5	6.6	14	3	2317
COc1ccc(CCN=C(N)NS(=O)(=O)c2cc(F)ccc2OC)cc1	5	-11	-4	3.2	6	5	6157
COc1cc(OC)cc(C(=O)NNC(=O)C2CCCC2)c1	49	-18	2	2.4	7	6	3678
O=C(Cc1ccc(Cl)cc1)Nc1ccc(Br)cn1	-8	-11	13	2.3	8	12	3669
Cc1cc(C)c(OCCCON2C(=O)CCC2=O)c(Br)c1	-17	-8	3	7.8	9	11	3918
O=C(N/N=C/c1c(O)n(-c2ccc(Cl)cn2)c(=O)c2ccccc12)c1ccncc1	2	-3	-14	2.0	9	-2	2547
